Tgondii IFNg – blocks Toxoplasma gondii growth in the presence of IFN-gamma. Toxoplasma gondii growth in IFN-gamma-treated host cells; stronger effect = lower value; reference of the scale not given here. activity change, negative = inhibition, %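 (about 20 µM by stock and volumes)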. 69,000 compounds, 3.8% hits;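 active = below -70%; inconclusive = fit judged invalid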;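 also: host cells are HeLa cells infected with Toxoplasma gondii; parasite growth read as luciferase light; one replicate is shown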
An asterisk follows results filed as active; i = inactive; ? = inconclusive; & = joins results of further samples. This is a subset, so the mix of outcomes need not match the whole.

SMILES	Tgondii IFNg
C[C@@H]1CCCCO[C@@H](CN(C)C(=O)CCCN(C)C)[C@H](C)CN([C@H](C)CO)C(=O)c2cc(NC(=O)Nc3ccc4c(c3)OCO4)ccc2O1	66
COc1ccc(OC)c(CN(Cc2cnc(N3CCOCC3)nc2)Cc2ccco2)c1	14
O=C(Nc1cccc(F)c1)C1CN(C(=O)NCc2cccc(F)c2)CC12CCOCC2 (stereo not drawn)	-51
Cc1ccc(CN2CC(C(=O)NCC3CC3)C3(CCOCC3)C2)s1 (stereo not drawn)	-23
CN(C)C(=O)C[C@H]1CC[C@H]2[C@@H](COC[C@@H](O)CN2C(=O)C2CCOCC2)O1	-19
COCC(c1ccnn1C)n1cc(-c2ccc3c(c2)OCCO3)nn1 (stereo not drawn)	-7
C[C@@H]1CCCCO[C@@H](CN(C)Cc2ccc(Cl)c(Cl)c2)[C@@H](C)CN([C@H](C)CO)C(=O)c2cc(NS(=O)(=O)c3cccs3)ccc2O1	-45
Cc1nc(C2CCCN2C(=O)Cn2cnc3ccccc32)ncc1C(=O)N1CCOCC1 (stereo not drawn)	5
Cc1cnn(CC(=O)N2CCCC(c3cnccn3)C2)c1 (stereo not drawn)	11
CN1C(=O)CC(C(=O)N(CCO)Cc2cccs2)c2ccccc21 (stereo not drawn)	1
C[C@@H]1CCCCO[C@@H](CN(C)S(=O)(=O)c2ccc(F)cc2)[C@@H](C)CN([C@@H](C)CO)C(=O)c2cc(N(C)C)ccc2O1	i
Cc1ccc(-c2nc(CCNC(=O)C(=O)Nc3cc(C)ccc3C)cs2)cc1	64
O=C(CCC(=O)N1CC(=O)Nc2ccccc21)Nc1cccc(-n2cccn2)c1	1
COc1ccc(C[C@H]2CCn3nncc3COCCCNC2=O)cc1	-48
COc1ccc(CN2CCC(c3cc4ncccc4cn3)CC2)cc1OC	-48
COc1ccc(C(C)(C)C)cc1CN1CCC(O)(Cn2ccnc2C)CC1	-51
Cc1cnc(N2CCC3(CCCN(C(=O)c4cccs4)C3)C2)nc1 (stereo not drawn)	7
O=C1CCc2cc(S(=O)(=O)NCc3ccc4c(c3)CCN4C(=O)c3ccccc3)ccc2N1	-1
CCc1ccc(S(=O)(=O)N2CCc3nc(-c4ccc(OC)cc4)sc3C2)cc1	-15
CC1(C)C(=O)NC(=O)N1CC(=O)N1CCn2cncc2C1	5

A few values from the results shown:
Cc1nc(C2CCCN2C(=O)Cn2cnc3ccccc32)ncc1C(=O)N1CCOCC1 (stereo not drawn) – Tgondii IFNg = 5
COc1ccc(C(C)(C)C)cc1CN1CCC(O)(Cn2ccnc2C)CC1 – Tgondii IFNg = -51
O=C(Nc1cccc(F)c1)C1CN(C(=O)NCc2cccc(F)c2)CC12CCOCC2 (stereo not drawn) – Tgondii IFNg = -51

Further compounds
SMILES	Tgondii IFNg
Cc1ncsc1CCN(C)C1CCN(S(C)(=O)=O)CC1	-12
COc1cccc(CN2CCN(C(=O)c3ccc(-c4ccccc4)cc3)CC2)c1	25
O=C(NCc1cccs1)c1c(O)c2ccccc2[nH]c1=O	118
CC(=O)[C@@H]1[C@@H](C(=O)c2ccc(C)cc2)[C@]2(C(=O)Nc3ccccc32)[C@H]2C=Cc3cc(F)ccc3N12	32
Cc1cc(CN2CCCC3(COCCN(C)C3)C2)n(C)n1 (stereo not drawn)	99
O=C(O)CSC1CCS(=O)(=O)C1 (stereo not drawn)	-45
CCOCCCNc1ncc(-c2ccsc2)c(-c2nc(C)cs2)n1	8
O=C(c1ccccc1N=Nc1c(O)[nH]c(=O)[nH]c1=O)N1CCOCC1	43
CCN(CC)C(=O)CSc1nnc(COc2ccc(C)cc2)n1CC	-2
O=C(C[C@@H]1CC[C@@H]2NC[C@@H](O)COC[C@H]2O1)Nc1ccc(-c2ccccc2)cc1	4
Cc1cnc(C)c(-c2cc(O)c3c(c2)CN(Cc2nccs2)CCO3)n1	98
O=C(NCCc1csc(-c2cccnc2)n1)C1CC2(CCNCC2)CN1 (stereo not drawn)	9
CCO[C@H]1CCN(C(=O)c2cnc(C)cn2)[C@H]1Cc1ccccc1	3
COc1ccc(NC(=O)N2CCC(c3nc(C(=O)N(C)C)c(C)o3)CC2)c(OC)c1	437
O=C(c1ccc(Oc2cc(Cl)cc(Cl)c2)o1)N1CCN(Cc2cccnc2)CC1	-19
Cc1nccn1-c1ccccc1CNC(=O)C1CC(=O)N(CC(C)C)C1 (stereo not drawn)	5
Cc1nccn1CCCN1CCC2(CCCO2)CCC1=O (stereo not drawn)	-9
COc1ccc(C)cc1-n1cnnc1C(O)c1ccccc1 (stereo not drawn)	1
O=C(COc1ccccc1O)N1CC[C@@H](c2ccc3c(c2)OCO3)[C@H](O)C1	30
Cc1occc1C(=O)NN1CC(=O)N(C23CC4CC(CC(C4)C2)C3)C1=O	-14

Seven entries already listed, sorted by SMILES length, smallest number first:
SMILES	Tgondii IFNg
Cc1nccn1CCCN1CCC2(CCCO2)CCC1=O (stereo not drawn)	-9
CCOCCCNc1ncc(-c2ccsc2)c(-c2nc(C)cs2)n1	8
CCO[C@H]1CCN(C(=O)c2cnc(C)cn2)[C@H]1Cc1ccccc1	3
O=C(c1ccc(Oc2cc(Cl)cc(Cl)c2)o1)N1CCN(Cc2cccnc2)CC1	-19
COc1ccc(NC(=O)N2CCC(c3nc(C(=O)N(C)C)c(C)o3)CC2)c(OC)c1	437
O=C(C[C@@H]1CC[C@@H]2NC[C@@H](O)COC[C@H]2O1)Nc1ccc(-c2ccccc2)cc1	4
CC(=O)[C@@H]1[C@@H](C(=O)c2ccc(C)cc2)[C@]2(C(=O)Nc3ccccc32)[C@H]2C=Cc3cc(F)ccc3N12	32

New compounds follow:
SMILES	Tgondii IFNg
Cc1cc(C(=O)N2CCOc3c(O)cc(-c4ccccc4C)cc3C2)no1	-63
Cc1ccc(-c2nc(Cn3nnc(C(=O)NCCCc4ccccc4)c3C)c(C)o2)cc1	-53
Cc1ccccc1-c1noc(CNC(=O)C2CC(C(C)C)=NO2)n1 (stereo not drawn)	-37
O=C(Cn1ncc2c(N3CCN(c4ccccc4)CC3)ncnc21)Nc1ccc(Cl)cc1	-13
COCCn1c(=O)[nH]c2cc(C(=O)Nc3nnc(C)s3)ccc21	166
CCn1nnnc1SCC(=O)N1c2ccccc2Sc2ccccc21	-11
CNC(=O)C1Cn2ccnc2C2(CCN(C(=O)NC3CCCC3)CC2)O1 (stereo not drawn)	-48
COc1ccccc1N(Cc1nc(-c2ccc(OC(C)C)cc2)oc1C)S(=O)(=O)c1cccs1	-30
FC(F)(F)c1cc(C#CCN2CCOCC2)cc(C(F)(F)F)c1	10
OC1(c2ccc(F)cc2)Cc2ccccc2C2=NCCN21 (stereo not drawn)	25
CCc1c(C)nn(CCNC(=O)c2cnn3ccn(C)c23)c1C	5
COc1ccc(-c2cnc3n2CCNC32CCN(C3CCCC3)CC2)cc1	-12
CCN(CC)Cc1cnc2n1CCN(C(=O)c1cc(C)on1)CC2	-5
CCOc1ccc(CNCCN2CCOCC2)cc1OCC	66
O=C(N[C@@H]1CC[C@@H](CC(=O)N2CCOCC2)O[C@H]1CO)c1cccc(F)c1	-38
O=C(CN1CCC(c2nc(-c3ccncc3)n[nH]2)CC1)Nc1ccccc1N1CCOCC1	-30
COc1cc2nc3n(c(=O)c2cc1OC)CCN(C(=O)C(C)(C)C)CC3	-39
CC(C)(O)C#Cc1ccc([C@H]2[C@H](CO)N3CCCCN(S(C)(=O)=O)C[C@@H]23)cc1	7
COCCC(=O)N1CCC(c2nc3ccccc3cc2NC(C)=O)CC1	53
Cc1nc(CN2CCN(C(=O)Cn3c(C(F)(F)F)nc4ccccc43)CC2)cs1	5
OCC#Cc1csc(-c2nccn2-c2cccc(-c3ccn[nH]3)c2)c1	6
Cc1ccc(CN2CCCC(OCc3cccnc3)C2)o1 (stereo not drawn)	2
CCOC(=O)c1cccc(NC(=O)N2CCC3(CC2)Nc2ccccc2-n2cccc23)c1	214
O=C(CCCNS(=O)(=O)c1cccs1)N1CCC(c2cc3ncccc3cn2)CC1	-18
CO[C@H]1CCN(C(=O)c2ccno2)[C@H]1Cc1cnn(C)c1	344
C=CCN1C(=S)O/C(=C2\C=Cc3cc(C)ccc3N2CC)C1=S	-39
COc1ccc(CCC2CCCNC2)cc1 (stereo not drawn)	0
CC(C)(C)NC(=O)CSc1nnc(-c2ccncc2)n1Cc1ccccc1	-69
CCN(CC)c1ccc(/C=N/NC(=O)c2ccc(O)cc2)cc1	15&-3
Cc1ccccc1-c1ccc2c(c1)O[C@H](CN(C)C(=O)Nc1ccc(C(F)(F)F)cc1)[C@H](C)CN([C@@H](C)CO)S2(=O)=O	?
CCS(=O)(=O)N1CCC2(CC1)OC(=O)C(C)=C2C(=O)NCc1cccnc1	13
CSc1ncccc1C(=O)N1CC(=O)N(Cc2cnn(C)c2)CC(OCc2cccnc2)C1 (stereo not drawn)	12
CC(C)NC(=O)N1[C@@H](CO)[C@@H]2c3ccccc3NC[C@@H]21	-3
Cc1nnc(NC(=O)CSc2ccccn2)s1	10
O=C(O)Cc1n[nH]c(=O)c2ccccc12	8
Cc1ccc(-c2cc(NC(=O)C3Cc4ccccc4C3)n[nH]2)cc1	-14
CO[C@H]1CN(C)C(=O)c2ccc(NC(=O)c3nc4ccccc4s3)cc2OC[C@@H](C)N(Cc2cccnc2)C[C@@H]1C	16
Cc1sc2ncnc(Oc3ccc(OCc4ccccc4)cc3)c2c1C	-101*
Cc1ccc(OC(C)C(=O)NCc2ccco2)cc1 (stereo not drawn)	-11
COc1ccc(-c2noc(-c3c(O)c4ccccc4[nH]c3=O)n2)c(OC)c1	-18

Shown as labelled records: entries from further up.
CC(C)NC(=O)N1[C@@H](CO)[C@@H]2c3ccccc3NC[C@@H]21
  Tgondii IFNg = -3

COc1ccc(-c2noc(-c3c(O)c4ccccc4[nH]c3=O)n2)c(OC)c1
  Tgondii IFNg = -18

(next part)
SMILES	Tgondii IFNg
C=CC[C@@H]1CC=C[C@@H](C)N1C(=O)CCn1cncn1	-3
O=C(N[C@H]1CC[C@@H](CCn2cc(-c3ccccc3F)nn2)O[C@H]1CO)c1ccc2c(c1)OCO2	-6
COc1cc(CCC(=O)N2CCC3(CC2)Nc2cc(F)ccc2-n2cccc23)cc(OC)c1OC	37
Cc1cccc(C(=O)N2CCc3c([nH]c4ccccc34)C2c2ccc(Cl)cc2)c1 (stereo not drawn)	-104*
COCCN1CCO[C@H]2CCN(C(=O)c3snnc3C)C[C@H]21	167
COc1ccc(OC)c2[nH]c(=O)c(CNc3cc(-n4cccc4)ccc3C)cc12	395
Cc1ccc(CNC(=O)CN2C(=O)CCc3cc(S(=O)(=O)N4CCCC4)ccc32)cc1	8
O=c1[nH]c2cc3c(cc2cc1CNc1cccc2c1CCCC2)OCCO3	7
CCOC(=O)C1(CCc2ccccc2)CCN(C(=O)c2ccc(Cn3cnnn3)cc2)CC1	-35
Cc1nc(-c2cccc(F)c2)sc1CCNC(=O)c1ccc(Cl)cc1	-4
Cc1ccc(NC(=O)N2CCC3(CC2)NC(=O)c2cc(F)ccc2N3C)cc1C	?
O=C1CCc2cc(NC(=O)c3ccc(C(F)(F)F)cc3)ccc2N1	13
Cc1n[nH]c(C)c1S(=O)(=O)NCC(c1ccccc1)N1CCCCC1 (stereo not drawn)	4
O=C(C[C@H]1C=C[C@H](NC(=O)CCN2CCCCC2)[C@@H](CO)O1)Nc1nccs1	40
COc1ccc(-c2nc(C)c(CCNS(=O)(=O)c3ccc([N+](=O)[O-])cc3)s2)cc1OC	i
CCC1CN(Cc2cnc(-c3ccccn3)nc2)CCN1C(C)C (stereo not drawn)	4
CC(C)C(=O)N1CCCC12CCN(C(=O)c1cscn1)C2 (stereo not drawn)	2
CN(C)CC(=O)N[C@H]1CC[C@H](CCNC(=O)C2CCC2)O[C@H]1CO	-1
O=C(Cc1ccccc1O)NCc1cccnc1Oc1ccccc1F	-26
CNC(=O)[C@]12CCC3(CCN(C(=O)c4ccco4)CC3)[C@H]1CN(C(C)=O)C2	3
O=C(O)C[C@H]1C=C[C@@H](NC(=O)Nc2cc(F)ccc2F)[C@@H](CO)O1	-1
COc1ccccc1CNC(=O)CN1CC2(CCNCC2)CC1C(=O)O (stereo not drawn)	-6
COc1ccc(-c2nc(C(=O)N3CCN(C)CC3)sc2-c2ccc(OC)cc2)cc1	-14&4
COc1cc(-c2cc(-c3cccc(O)c3)cnc2N)cc(OC)c1OC	-38
Cc1cccc(NC(=O)C(=O)NCCc2sc(-c3ccccc3)nc2C)c1	-36
Cc1ccc2[nH]cc(CN3CCCN(C(=O)c4ccco4)CC3)c2c1	21
CCOc1ccc2oc(=O)cc(CN3CCN(Cc4nc(-c5ccccc5OC)oc4C)CC3)c2c1	-9
Cc1csc2ncnc(Sc3ccccc3NS(=O)(=O)c3ccc(F)cc3)c12	-63
O=C(O)c1cccnc1CN(Cc1ccccc1)C1CCS(=O)(=O)C1 (stereo not drawn)	32
Cc1nc(-c2ccc(F)cc2)sc1-c1ccc(SCc2cccnc2)nn1	-2
O=C(CCN1CCC(O)(Cn2ccnc2)CC1)Nc1nc2ccccc2s1	2
Cc1ccc2c(c1)cc(S(=O)(=O)c1ccccc1)c(=O)n2CC(=O)NCc1ccccc1Cl	-30
Cc1ccccc1-c1nc(Cn2nnc(C(=O)Nc3cccc(C)c3C)c2C)c(C)o1	49
COc1ccccc1-c1ccc2n(c1=O)C[C@@H]1[C@@H](CO)[C@H](C(=O)NCc3ccccc3Cl)N[C@H]21	-6
COc1ccc(-c2nc(CNS(=O)(=O)c3ccc(C(C)C)cc3)c(C)o2)cc1	-75*
COc1ccc(CCC(=O)Nc2ccc(N3CCOCC3)c(Cl)c2)cc1	66
Cc1ccc2c(c1)NC1(CCN(C(=O)c3ccccc3)CC1)c1cccn1-2	17
CCc1c(C)nc(N)nc1N1N=C1SC(C)C	-13
O=c1c(Cc2ccccc2)c(O)c2cccc3c2n1CC3	176

Source: PubChem BioAssay (Broad Institute)
